# From PubChem
# TRPV1 potentiator – human TRPV1 potentiation; TRPV1-expressing cells, Fluo-8 calcium influx, capsaicin EC20 potentiation; host cell line not named in the record; control for the full effect not named in the record; 320,000 tested, 0.02% active; Q8NER1; potentiation, % at 8.33 µM; active means potentiation above 80%; inconclusive means 30% to 80%; inactive means below 30%; further: 0% is about no effect
# Target sequence (Q8NER1 whole entry, looked up): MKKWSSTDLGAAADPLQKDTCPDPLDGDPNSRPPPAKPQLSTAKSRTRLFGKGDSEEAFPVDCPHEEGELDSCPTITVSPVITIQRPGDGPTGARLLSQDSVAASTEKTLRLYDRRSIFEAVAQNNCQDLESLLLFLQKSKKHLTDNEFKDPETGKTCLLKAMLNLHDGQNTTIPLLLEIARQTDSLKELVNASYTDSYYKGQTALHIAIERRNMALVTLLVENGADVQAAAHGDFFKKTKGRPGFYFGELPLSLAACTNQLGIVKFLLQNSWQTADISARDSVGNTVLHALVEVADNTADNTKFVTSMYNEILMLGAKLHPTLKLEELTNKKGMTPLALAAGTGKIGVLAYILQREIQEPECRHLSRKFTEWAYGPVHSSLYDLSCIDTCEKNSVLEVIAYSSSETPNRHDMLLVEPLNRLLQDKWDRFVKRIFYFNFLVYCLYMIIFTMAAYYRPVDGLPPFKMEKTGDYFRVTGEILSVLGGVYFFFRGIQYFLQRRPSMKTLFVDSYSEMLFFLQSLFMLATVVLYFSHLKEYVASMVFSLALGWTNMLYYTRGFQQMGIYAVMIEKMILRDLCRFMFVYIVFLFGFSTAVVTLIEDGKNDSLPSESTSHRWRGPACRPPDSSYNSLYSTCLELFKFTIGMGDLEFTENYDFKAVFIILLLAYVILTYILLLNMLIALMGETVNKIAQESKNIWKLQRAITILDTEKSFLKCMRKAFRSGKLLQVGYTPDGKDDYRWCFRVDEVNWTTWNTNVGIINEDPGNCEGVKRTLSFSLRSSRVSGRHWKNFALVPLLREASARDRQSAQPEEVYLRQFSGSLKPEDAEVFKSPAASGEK
#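 Fluo-8 calcium influx in TRPV1-expressing cells, kinetic read (ex 480/em 520 nm). Compound added and read 3 min for agonist activity, followed by capsaicin at EC20 final and 2 min further read for enhancement.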
# PINK1 modulator – changes PINK1 expression; PINK1 immunofluorescence, high-content cytometry, 24 h; Potency, µM (titrated, usually from 76.6 µM), for the others: top-dose activation (PINK1 increase), hits mostly activators; 410,000 tested, 0.2% active; AID 624263; active = well fitted activation curve with a large enough effect; inconclusive = small, poorly fitted or top-dose-only effect; inactive = flat fitted curve, though single readings scatter; cell line not stated here;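 further: potency means the concentration at half of the fitted maximal effect; % of control where 0% means no effect; nearly all actives have a fitted effect of over 65% in size; a mitochondrial uncoupler was the plate control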
#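 PINK1 protein level read as immunofluorescence by microplate cytometer in a fixed, stained stable cell line after 24 h exposure to five compound concentrations, with CCCP as control.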
# Sfp PPTase inh – Sfp phosphopantetheinyl transferase inhibition | Q9F4F7 | Biochemical Sfp PPTase activity, qHTS | Potency, µM, without a hit: max response, negative = inhibition, usual class: inhibitors | 310,000 tested, 3.5% active | AID 1490; active means well fitted inhibition curve with a large enough effect; inconclusive means small, poorly fitted or top-dose-only effect, or another doubt; inactive means no such curve, though single readings can be large or run the other way;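 further: the enzyme is Sfp with the accession as filed and its product quenches rhodamine fluorescence; potency means the concentration at half of the fitted maximal effect; 0% = enzyme reaction without inhibitor and -100% = no enzyme wells; top concentration of the series not given in the record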
#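 After 15 min at room temperature with compound, 15 nM Sfp received 5 uM rhodamine-CoA plus 12.5 uM BHQ-2-ybbR (50 mM Hepes pH 7.6, 10 mM MgCl2). Rate came from the fluorescence difference over 30 min, ex 525/em 598 nm.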
# D2 agonist – agonists of human D2 dopamine receptor (beta-arrestin). DiscoveRx PathHunter D2 beta-arrestin, luminescence, 90 min; 100% = 57 uM dopamine signal. activation, % (no concentration beside the values). 360,000 tested, 0.084% active. AID 624465; in the data active = activation above about 40%; inconclusive = about 15% to 40%; inactive = below about 15%; further: compound concentration not given in the record; the text of the record calls up to 30% inactive
#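 Agonist mode: compounds alone added to overnight-plated D2 PathHunter cells for 90 min at 37 C, with 57 uM final dopamine (EC100) defining full response. Beta-arrestin recruitment detected by chemiluminescent reagent, read after 1 h at ambient temperature.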
# Six1-Eya2 inh – inhibitors of human Six1/Eya2 interaction; Q15475+O00167; 360,000 tested, 0.56% active; activity change, % (no concentration beside the values); AlphaScreen GST-Six1/His-Eya2 binding, biochemical; active compounds read low; control for the full effect not named in the record; in the data active = activity change below about -65%; inconclusive = about -30% to -65%; inactive = above about -30%; further: on the % scale 0 is the no-effect control and ±100 the full control effect
#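 AlphaScreen with GST-Six1 and His-Eya2 (5X mix: 250 nM and 500 nM), glutathione donor and nickel acceptor beads; buffer 50 mM Tris pH 8.0, 300 mM NaCl, 1 mM TCEP; 1 h at 37 C in the dark.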
# D2 potentiator – positive allosteric modulators of human D2 dopamine receptor | P14416 | DiscoveRx D2 beta-arrestin cells, luminescence, 90 min; 100% = 57 uM dopamine signal | 360,000 tested, 0.23% active | potentiation, % (concentration not given with the values); active = potentiation of 50% or more; inconclusive = 30% to 50%; inactive = 30% or less;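 further: compound concentration not given in the record; tested on top of an EC20 dose of dopamine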
#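 PathHunter beta-arrestin assay in DiscoveRx D2 cells. Compounds were added with an EC20 of dopamine (50 nM final) for 90 min at 37 deg C. Luminescence was read 1 h after detection reagent, with 57 uM dopamine as the EC100 control.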
# CtBP-E1A inh – inhibitors of CtBP/E1A interaction; AlphaScreen GST-E1A/His-CtBP binding, 1536-well; active compounds read low; control for the full effect not named in the record; activity change, % (concentration not given with the values); 340,000 tested, 0.49% active; AID 651724; in the data active means activity change below about -65%; inconclusive means about -30% to -65%; inactive means above about -30%; further: on the % scale 0 is the no-effect control and ±100 the full control effect
#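 AlphaScreen with 125 nM GST-E1A and 125 nM His-CtBP (5X stocks) in Tris pH 8.0, 300 mM NaCl, BSA, Tween 20, TCEP. Compounds preincubated 2 h at 37 deg C, then glutathione donor/nickel acceptor beads added for 1 h at 37 deg C in dark.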
# * hit, by the source's call; ? = inconclusive; . = no result given; [ ] = remark or other dose.
SMILES,TRPV1 potentiator,PINK1 modulator,Sfp PPTase inh,D2 agonist,Six1-Eya2 inh,D2 potentiator,CtBP-E1A inh
Cc1cccc(NC(=O)CCSc2ccccc2)c1C,-15,2.9%,0%,5.0,7,2,.
CCOc1cc(N2CCOCC2)c(OCC)cc1NC(=O)[C@H](C)NC(=O)c1ccco1,-10,2.9%,8%,-14,6,-10,18
CCCn1c(-c2ccc[nH]c2=O)nc2cc(C)c(C)cc21,9,2.7%,-7%,3.1,6,-2,5
CN(Cc1ccccc1)C(=O)c1ccc(COc2ccccc2)cc1,9,-0.6%,-3%,0.8,8,-22,11
CCN(CC(=O)Nc1ccc(OC)cc1)C(=O)c1cc2c(s1)CCCCC2,-13,-3.6%,.,1.1,-12,2,-8
CSc1ncccc1C(=O)OCC(=O)N(C)C1CCS(=O)(=O)C1 (centres undefined),0,-0.8%,8%,-2.3,2,3,9
COc1ccc(N2CCN(C(=O)C3CCN(S(=O)(=O)c4ccc(C)cc4)CC3)CC2)cc1,-15,0.5%,9%,-4.1,-6,-3,-5
CCC(C)(C)NC(=O)C(c1ccc(C)o1)N(Cc1ccc2c(c1)OCO2)C(=O)c1snc(C(N)=O)c1N (centres undefined),-10,16%,17%,-1.2,0,-4,-11
COC(=O)c1ccc(CSc2n[nH]c(=S)s2)o1,-1,-1.0%,-27%,-3.4,-1,-15,8
CCNS(=O)(=O)c1ccc(CCC(=O)NCCc2ccc(OC)cc2)cc1,-3,-2.7%,7%,6.9,6,-2,6
CCCCCC(=O)Nc1ccc(Cc2ccncc2)cc1,-8,3.6%,14%,-1.2,0,-6,-1
CC(=O)Nc1ccc(CN(C)c2c(C)nc3ccc(C(=O)NCCCN4CCCC4=O)cn23)cc1,.,0.5%,.,3.2,-2,-8,1
COc1ccc(CCNC(=O)CNC(=O)N2CC(=O)Nc3ccccc32)cc1,.,-0.7%,.,0.2,2,-10,4
COc1ccc(/C=C/C(=O)NC(=S)NNC(=O)c2cccnc2)cc1OC,3,-2.9%,6%,-3.9,-29,-25,?
COc1cccc(-c2cc(C(=O)N3CCN(Cc4ccccc4)CC3)no2)c1,-14,2.5%[38.3 µM],0%,-1.3,-8,-19,-6

# Some of the entries so far, as labelled records.
CCNS(=O)(=O)c1ccc(CCC(=O)NCCc2ccc(OC)cc2)cc1
  TRPV1 potentiator = -3
  PINK1 modulator = -2.7%
  Sfp PPTase inh = 7%
  D2 agonist = 6.9
  Six1-Eya2 inh = 6
  D2 potentiator = -2
  CtBP-E1A inh = 6

CCCCCC(=O)Nc1ccc(Cc2ccncc2)cc1
  TRPV1 potentiator = -8
  PINK1 modulator = 3.6%
  Sfp PPTase inh = 14%
  D2 agonist = -1.2
  Six1-Eya2 inh = 0
  D2 potentiator = -6
  CtBP-E1A inh = -1

CC(=O)Nc1ccc(CN(C)c2c(C)nc3ccc(C(=O)NCCCN4CCCC4=O)cn23)cc1
  TRPV1 potentiator = .
  PINK1 modulator = 0.5%
  Sfp PPTase inh = .
  D2 agonist = 3.2
  Six1-Eya2 inh = -2
  D2 potentiator = -8
  CtBP-E1A inh = 1

# Remaining list, next part:
SMILES,TRPV1 potentiator,PINK1 modulator,Sfp PPTase inh,D2 agonist,Six1-Eya2 inh,D2 potentiator,CtBP-E1A inh
CC1(C(=O)NCc2cccnc2)CCC(=O)N1CCc1ccccc1 (centres undefined),6,3.1%,22%,-4.4,4,-8,6
COc1cc(NC(=O)CCN2CC(C)OC(C)C2)cc(OC)c1 (centres undefined),6,-1.1%,21%,-0.3,-12,-34,-2
Oc1ccc(/C=N/n2cnn(Cc3ccccc3Cl)c2=S)c(O)c1,-10,-1.0%,14µM*,-1.3,1,0,-2
Cc1ccc(OCc2ccc(C(=O)N3CCOCC3)cc2)cc1C,-7,0.7%[38.3 µM],35µM*,-0.9,3,-5,3
CCc1nc(SCC(=O)Nc2ccccc2)c2c(=O)n(C)c(=O)n(C)c2n1,7,3.2%,4%,-5.0,4,-7,6
CN(C(=O)c1ccc(C#N)cc1)c1nnc(-c2ccccn2)s1,7,-0.5%,1%,-3.8,-2,-20,-4
O=C(CNc1ccc(Cl)cc1)c1ccc(Br)cc1,-5,1.1%,7%,-11,-13,-40,0
CN(C)c1nc(N)nc(CSc2nnnn2-c2ccccc2)n1,5,2.4%[38.3 µM],-6%,-1.1,5,-12,7
CCn1c(-c2csc(C(C)C)c2)n[nH]c1=S,20,0.5%,-24%,-4.7,6,-17,3
Cc1cc(C)n(-c2ccc3nncn3n2)n1,10,-0.1%,10%,-5.1,-1,-3,4
CC1CCN(Cc2ccc(NC(=O)CC3Oc4ccccc4NC3=O)cc2)CC1 (centres undefined),-7,-0.1%,-25%,-1.4,0,-5,1
CCCCC(CC)CNC(=O)CCS(=O)(=O)c1cccc2nsnc12 (centres undefined),-26,-4.3%,2%,0.6,9,-2,0
Cc1c(-c2ccc(Cl)cc2)[n+](=O)c(-c2ccccc2)cn1[O-],-2,0.3%,17%,-3.2,1,-9,5
C=CCSc1nc2ccccc2n2cnnc12,-31,-0.5%,-2%,1.1,-14,-3,.
COc1ccc(C(=O)C2CCN(S(=O)(=O)c3ccc4c(c3)OCCO4)CC2)cc1,15,-2.4%[38.3 µM],-3%,4.7,-2,-2,5
Nc1ccn(-c2ccccc2)c(=O)c1,1,3.6%,8%,-0.9,10,8,5
O=C(CCS(=O)(=O)Cc1ccccc1)Nc1nnc(C(F)(F)F)s1,8,-3.6%,14%,-0.2,2,-5,10
Cc1csc(N2CCN(c3cc4c(cc3Cl)nc(-c3ccncc3)n4CCCN3CCCC3)CC2)n1,15,4.9%,?,-1.0,-8,-10,-1
Cc1cc(C)c2nc(N3CCCC(C(=O)N4CCC(C(N)=O)CC4)C3)sc2c1 (centres undefined),-10,?,-29%,-2.7,-4,-3,1
Cc1ccc(C(=O)N2CCNC(=O)C2CC(=O)Nc2ccc(F)cc2)cc1C (centres undefined),18,0.6%,12%,-5.4,4,-5,5
CC(Oc1ccccc1)C(=O)OCC(=O)NC(=O)NCc1ccco1 (centres undefined),5,0.0%,15%,-2.6,-11,-8,0
Fc1cnc(N2CCOCC2)nc1N1CCOCC1,-4,-0.6%,16%,-2.7,13,-7,0
CC1=NNC(=O)c2ccccc2O1,-9,-1.1%,?,-2.9,-14,-2,-14
COc1cc(-c2csc(NC3CCCCC3)n2)cc(OC)c1OC,1,4.4%,-11%,-2.3,5,-4,-19
CCN1C(=O)CC2CCCC1C2 (centres undefined),.,-3.8%,.,-3.7,14,-10,16
Cc1ccc(C2CC2c2n[nH]c(=S)n2-c2cccc(C)c2)cc1 (centres undefined),21,0.8%,-16%,8.1,-19,-5,.
CCOC(=O)C1CCCN(C2CCN(Cc3nc(Cc4ccccc4)no3)CC2)C1 (centres undefined),-3,3.4%,15%,-0.5,3,-30,-21
CCCCCC/C(=N/O)c1ccccn1,0,-1.6%,4%,0.3,-18,?,-21
COCCCn1c(SCC(=O)NC2CCCCC2)nc2ccccc2c1=O,-10,0.6%,2%,-3.0,2,2,9
O=[N+]([O-])c1cccc(C(=S)N2CCN(c3ccc(F)cc3)CC2)c1,0,-2.5%,28µM*,-3.3,-27,-3,-14
CC(=O)Nc1ccc(S(=O)(=O)Nc2nc3ccccc3nc2Cl)cc1,12,0.3%,23%,2.6,-7,0,.
COc1cc(C=O)ccc1OC(=O)c1cccnc1,2,2.1%,5%,-5.6,-9,-2,-13
O=C(NC1CCCc2c1cnn2-c1cc(F)cc(F)c1)c1ccc[n+]([O-])c1 (centres undefined),5,-1.1%,17%,-1.3,-1,-2,-2
COc1cccc(C(O)c2nc(-c3ccccc3OC)cs2)c1 (centres undefined),.,4.2%,.,3.5,6,-9,1
Cc1cc(C)c(C)c(SCC(=O)Nc2oc(C)c3c(C)n[nH]c(=O)c23)c1C,-2,0.4%,.,1.4,-1,-16,0
CCOCCN(C(=O)c1ccccc1Cl)c1ccccc1,24,0.8%,-1%,-4.6,-11,-4,?
CSc1ccccc1NC(=S)Nc1cc(C)cc(C)c1,-2,-0.9%,21%,-3.9,-3,15,0
Cc1c(Cl)cccc1NC(=S)NCCN1CCOCC1,2,1.4%,8%,1.8,-2,-12,-2
Cc1ccc(C(C)n2cc(C(=O)NCc3ccncc3)nn2)cc1 (centres undefined),-23,-1.4%,25%,-2.2,2,-3,3
O=C(c1ccc([N+](=O)[O-])o1)N1CCN(Cc2ccccc2)CC1,-12,0.2%,1%,5.6,0,-22,.
COc1ccc(CCN2C(=O)N(c3ccc(OC)cc3)C(=O)C2CC(=O)Nc2ccc(OC)cc2)cc1 (centres undefined),11,8.5%,3%,-1.3,-3,-8,0
CCOCC(=O)Nc1c(C(=O)OCC)oc2ccccc12,-1,6.5%[38.3 µM],6%,-6.8,3,-3,8
CC12CC3CC(C)(C1)CC(C(=O)NNC(=O)c1ccncc1)(C3)C2,10,-0.7%,3%,-3.7,1,-6,-1
COc1ccc(OC)c2c(C)cc(N3CCN(C(=O)c4ccc(F)cc4)CC3)nc12,29,-0.5%,-24%,-2.3,-8,-2,-24
COc1ccc(C2CC(C(F)(F)F)n3nc(C(=O)O)cc3N2)cc1OC (centres undefined),3,-21%[38.3 µM],21%,-0.5,3,16,-7
Cc1ccc(-n2ncc3c2CCCC3NC(=O)CCc2cnccn2)cc1C (centres undefined),-9,-1.2%,6%,-1.9,-1,-7,-6
O=C1c2ccccc2C(=O)N1CCCOc1ccccc1,-8,4.1%,9%,-1.7,15,-1,9
C=C(C)COc1ccc(-c2[nH]ncc2-c2ccc(OC)cc2)c(O)c1,0,-0.7%,1%,1.5,-15,-5,-5
Cc1nc(N2CCN(C(=O)c3cnccn3)CC2)c2c3c(sc2n1)CC(C(C)(C)C)CC3 (centres undefined),-3,3.1%,-25%,-1.5,4,0,-1
Cn1c(=O)n(C)c2cc(NC(=O)COc3ccc(F)cc3)ccc21,-3,-0.5%,8%,3.2,6,9,.
CCN(c1ccccc1)S(=O)(=O)c1cccc(C(=O)Nc2cccc(C)n2)c1,.,0.5%,.,-0.2,-7,-16,-10
O=S(=O)(c1ccc2c(c1)OCCO2)N1CCC(n2nnc3cc(C(F)(F)F)ccc32)CC1,10,-0.2%,7%,-0.7,1,3,3
CCc1nc2sc3ccccc3c(=O)c2c(=O)n1Cc1ccc(OC)cc1,12,2.0%,-5%,2.7,17,-6,37
CN(C)S(=O)(=O)c1ccc2oc(SCC(=O)c3c(N)n(C4CC4)c(=O)[nH]c3=O)nc2c1,6,8.2%,.,-0.8,1,5,.
Cc1ccccc1OCc1occc1C(=O)Nc1cccc(-n2cnnn2)c1,-8,7.0%,8%,-0.2,-14,-14,.
Cc1cccc(OCC(=O)NNC(=O)CCCCC(=O)NNC(=O)COc2cccc(C)c2)c1,19,0.4%,9%,-1.3,2,-12,1
